WNV NS2B-NS3 inh – blocks West Nile virus NS2B-NS3 protease activity; WNV NS2B-NS3 protease, fluorogenic substrate Ex360/Em465; hits give low values; z-score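 (tested at a level between 10 and 100 µM)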; 0.18% of 65,000 active;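 active = z-score at -3 or under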;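 note: score is relative to mean and spread of the compound wells of a plate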
Target sequence (P06935 1371-1501 limits assumed): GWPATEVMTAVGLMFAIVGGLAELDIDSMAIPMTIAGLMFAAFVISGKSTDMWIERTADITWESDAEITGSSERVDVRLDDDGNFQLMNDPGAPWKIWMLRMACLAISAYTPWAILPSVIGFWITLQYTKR
Target sequence (P06935 1502-1679 limits assumed): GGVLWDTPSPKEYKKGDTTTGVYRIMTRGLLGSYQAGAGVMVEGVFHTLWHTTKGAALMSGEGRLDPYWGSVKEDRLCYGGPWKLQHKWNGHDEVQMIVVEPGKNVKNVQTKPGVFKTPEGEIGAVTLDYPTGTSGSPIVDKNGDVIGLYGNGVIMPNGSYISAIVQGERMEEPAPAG
MT1-MMP reporter – MT1-MMP gene expression reporter suppression – cell-based, luciferase reporter, luminescence (AID 618); MT1-MMP promoter luciferase reporter cells, luminescence; calls from a first round at 10 µM; hits with a dose series show EC50 in µM; 0.62% of 87,000 active;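 active = over half of the reporter light lost at 10 µM or EC50 under 50 µM; inactive = the rest and hits that failed the dose series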;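 note: actives suppress MT1-MMP promoter-driven transcription so potencies describe inhibitors; HT1080 fibrosarcoma cells; overnight exposure; toxic or luciferase-blocking compounds were not removed from the actives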
Hsc70 – small molecules displacing fluorescent ligand from Hsc70 – biochemical, fluorescence polarization, primary screen (AID 568); Hsc70 fluorescence polarization, probe displacement; higher % means a stronger effect; strong numbers were not always called active; one-dose displacement, % at 20 µM; IC50 in µM for titrated hits; 83,000 tested, under 10 active;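 active = displacement above 50% without optical interference and an IC50 on retest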;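 note: ATPase domain with a fluorescein-tagged ATP probe; 0% = vehicle and 100% = excess ADP; read after one hour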
* = called active by the depositor; i = inactive; / = not tested or not shown. The list is partial; the hit share may differ from the screen's.

Each structure is followed by: MT1-MMP reporter | WNV NS2B-NS3 inh | Hsc70
> NS(=O)(=O)c1ccc(CCNC2CC(=O)N(CCc3ccccc3)C2=O)cc1 (stereo not given)
    i | -1.1 | 1.5%
> O=C(/C=C/NNC(=O)c1cccc(Br)c1)c1cccc(Br)c1
    i | / | -0.6%
> CCC1CCCCN1CCNS(=O)(=O)c1ccc2c(c1)oc(=O)n2C (stereo not given)
    i | 0.46 | 4.9%
> CCOC(=O)C(C)Sc1ccc2nnc(-c3ccc(F)cc3)n2n1 (stereo not given)
    i | 0.05 | 1.0%
> Cc1ccc(N=Cc2ccc(N(C)C)cc2)cc1
    i | / | -0.4%
> N=c1c2c(n(Cc3ccc(Cl)c(Cl)c3)c3c1CCC3)CCCC2
    i | -1.1 | 0.5%
> CCC(=O)Nc1cccc(NC(=O)CSc2nnc(-c3ccc(NS(C)(=O)=O)cc3)n2CC)c1
    i | / | 0.5%
> COc1cc(C(=O)N2CCN(C(=O)Cc3ccccc3)CC2)cc(OC)c1OC
    i | 1.7 | -1.7%
> O=S1(=O)CCN2C(=N1)Sc1c2ccc2c1CCCC2
    i | 0.31 | 3.4%
> CCCCC(CC)CNC(=O)c1[nH]c(C)c(C(C)=O)c1C (stereo not given)
    i | 0.6 | 1.4%
> Cc1cc(C)n2c(SCCC(C)C)nnc2n1
    i | -0.45 | -1.3%
> CSc1nc2ccc(S(=O)(=O)Nc3c(C)n(C)n(-c4ccccc4)c3=O)cc2s1
    i | 0.04 | 7.4%
> CC1(C)OC(=O)C(=CNCC(O)c2ccccc2)C(=O)O1 (stereo not given)
    i | -1 | 0.7%
> O=C(Nc1c(C(=O)Nc2cccc(F)c2)oc2ccccc12)c1ccc2c(c1)OCO2
    i | -0.27 | 1.9%
> O=C(OCCN1CCOCC1)c1ccc2c(c1)OCCO2
    i | -0.94 | -1.1%
> CCOC(=O)C1C(=O)NC(N2CCc3ccccc32)=NC1c1ccccc1 (stereo not given)
    i | 0.99 | -4.6%
> Cc1cc(C(=O)OCC(=O)N2CCN(c3ccccc3)CC2)c2ccccc2n1
    i | 0.32 | 8.2%
> Cc1ccc(C2/C(=C(/O)c3ccc(Br)cc3)C(=O)C(=O)N2Cc2ccco2)o1 (stereo not given)
    i | -0.08 | 2.9%
> CC(=O)Nc1ccc(S(=O)(=O)N2CCN(c3cccc(C)c3C)CC2)cc1
    i | 0.86 | 2.2%
> CCC(=Nc1ccc(N)cc1)C1=C(O)C(C(=O)OC)C(C)(C)CC1=O (stereo not given)
    i | -0.44 | -2.2%
> Cc1cccc2sc(NC(=O)CNS(=O)(=O)c3ccc(Br)s3)nc12
    i | 0.34 | -7.9%
> CCn1c(SCC(=O)Nc2nnc(C)s2)nc2c(c1=O)SC(C)C2 (stereo not given)
    i | -0.27 | 2.8%
> CCOc1ccc(S(=O)(=O)n2ccc(C)n2)c2ccccc12
    i | 0.78 | -4.7%
> CC1(C)CC(=O)C(C=NCc2ccc3c(c2)OCO3)=C(O)C1
    i | 0.44 | 5.5%
> Nc1cc(=O)[nH]c(SCC(=O)N2CCCc3ccccc32)n1
    i | / | -1.8%
> COCCCNC(=O)c1cn(Cc2c(F)cccc2Cl)nn1
    i | -0.27 | -0.2%
> C/C(N)=C(/C#N)C(=O)COC(=O)C(NS(=O)(=O)c1ccc(Cl)cc1)C(C)O (stereo not given)
    i | -0.29 | 0.9%
> CCOC(=O)NC(=O)CSc1nc(C)cc(C(F)(F)F)c1C#N
    i | -0.94 | -12%
> CCn1c(SCC(=O)Nc2nc(C)cs2)nnc1C(C)NC(=O)c1ccccc1 (stereo not given)
    i | / | 1.7%
> O=C(N1CCOCC1)N1CCN(C(=O)N2CCOCC2)CC1
    i | / | -1.2%
> Cc1cc(N2C(=O)C(O)=C(C(=O)c3cccs3)C2c2cccc(O)c2)no1 (stereo not given)
    i | / | -4.2%
> CC(=O)CSc1nnc(NC(=O)CCc2ccccc2)s1
    i | / | -2.2%
> COc1ccc(Cl)cc1S(=O)(=O)N1CCCC1
    i | / | -1.2%
> Cc1ccc(N2CC(C(=O)N3CCCc4ccccc43)CC2=O)cc1 (stereo not given)
    i | 2.2 | -4.6%
> CCOc1ccc(C(Nc2ccc(C)cc2)P2(=O)OCC(C)(C)CO2)cc1 (stereo not given)
    i | / | 6.6%
> COc1cccc(-c2csc3nnc(SCC(=O)NCc4cccs4)n23)c1
    i | -0.77 | 1.8%
> O=C(CCSc1nnc(-c2ccncc2)o1)Nc1ccc(F)cc1
    i | 0.16 | 0.7%
> CCCCOc1ccc(C2OC34CCCCC3C(C#N)(C#N)C2(C#N)C(=N)O4)cc1 (stereo not given)
    i | / | 0.7%
> Cc1onc(-c2ccccc2)c1-c1n[nH]c(=S)n1-c1ccccc1Cl
    i | / | 3.2%
> CC(=O)NC(N1CCCCC1)C(F)(F)C(F)(F)C(F)(F)C(F)F (stereo not given)
    i | -0.3 | -2.1%
> COc1ccc(C2C(C(C)=O)=C(O)C(=O)N2CCc2c[nH]c3ccccc23)cc1OC (stereo not given)
    i | / | 0.8%
> COC(=O)c1cc(OC)c(OC)cc1N
    i | -0.2 | 1.2%
> CC1(C)Cc2cccc(OCC(=O)O)c2O1
    i | 2.4 | -2.5%
> CCOc1cccc(-c2nnc3sc(-c4cc(OC)c(OC)c(OC)c4)nn23)c1
    i | -1.1 | -2.1%
> CCOC(=O)c1oc2ccccc2c1N
    i | / | 1.6%
> Cc1ccc(OCC(=O)Nc2ccc3c(c2)nc(CCN2CCOCC2)n3C)cc1
    i | -0.14 | 2.3%
> COc1ccccc1N(CC(=O)Nc1ccc(F)c(F)c1)S(C)(=O)=O
    i | 0.06 | -3.4%
> N#Cc1nc(Cc2cccc3ccccc23)oc1NCc1ccc2c(c1)OCO2
    i | -0.09 | -3.2%
> CCCCCN1CC(O)=C(c2nc(-c3ccc(Cl)cc3)cs2)C1=N
    i | / | -2.4%
> CCOCCCNC(=O)c1c(-c2ccccc2)noc1C
    i | -0.56 | -3.2%
> CCOC(=O)CCC(=O)Nc1ccccc1C(N)=O
    i | 0.42 | -0.9%
> Cc1ccc2oc3c(c(=O)c2c1)C(c1cccc(Cl)c1)N(CCCN1CCOCC1)C3=O (stereo not given)
    i | -0.47 | 4.2%
> Nn1c(SCC(=O)Nc2ccc3c(c2)OCO3)nnc1C1CC1
    i | -0.09 | 6.7%
> CCCNc1nc2c(c(=O)[nH]c(=O)n2C)n1CCc1ccccc1
    i | 0.56 | -2.9%
> O=C(COC(=O)c1cc(-c2ccc(Cl)s2)nc2ccccc12)NCc1ccco1
    i | / | -0.2%
> CCc1cc(/C(Cc2ccccn2)=N\O)c(O)cc1O
    i | / | -4.3%
> CCOc1cc(NC(=O)c2cnccn2)c(OCC)cc1NC(=O)c1ccc(C)cc1
    i | / | -5.9%
> N=c1n(Cc2ccccc2)c2ccccc2n1CC(O)COc1ccccc1 (stereo not given)
    i | -0.52 | -0.2%
> CC(C)C(c1nnnn1Cc1cccs1)N1CCN(c2ccccc2)CC1 (stereo not given)
    i | -1.2 | -3.0%
> COc1cc(NC(=O)c2cc3ccccc3o2)c(OC)cc1Br
    i | 1.8 | -7.5%

Additional results.
Each structure is followed by: MT1-MMP reporter | WNV NS2B-NS3 inh | Hsc70
> Cn1nc(C(=O)Nc2ccc(S(=O)(=O)N3CCCCC3)cc2)ccc1=O
    i | 1.2 | 2.2%
> CCc1ccc(S(=O)(=O)Nc2c(C)nn(C)c2C)cc1
    i | / | 7.2%
> CCN(CC(=O)NCc1ccc(F)cc1)CC(O)COCc1cccc(OC)c1 (stereo not given)
    i | 0.56 | 1.9%
> Cc1ccc(/C(O)=C/C(=O)C(=O)NNC(=O)C(O)(c2ccccc2)c2ccccc2)cc1
    i | / | 4.2%
> O=C(NCC(=O)N(c1ccc(F)cc1)C(C(=O)NCC1CCCO1)c1ccccc1)c1ccco1 (stereo not given)
    i | -0.98 | 6.2%
> COc1ccc(N2CCN(Cc3nc4c(c(=O)[nH]c(=O)n4C)n3CC(C)=O)CC2)cc1
    i | -0.4 | 3.4%
> O=C(O)c1c(NC(=O)c2cccc3ccccc23)sc2c1CCC2
    i | / | 2.7%
> Cc1cccc(C)c1Nc1nnc(SCc2cc([N+](=O)[O-])cc3c2OCOC3)s1
    i | / | 1.3%
> Cc1ccc2c(CSc3nc4nc(C)cc(C)n4n3)cc(=O)oc2c1
    i | / | -1.7%
> NC(=O)C1CCN(C(=O)c2cc3n(n2)C(C(F)(F)F)CC(c2ccco2)N3)CC1 (stereo not given)
    i | 0.77 | 2.2%
> CCOc1ccc(N(CC(=O)NCc2cccs2)S(=O)(=O)c2c(C)noc2C)cc1
    i | -1.9 | -3.9%
> CCOC(=O)C1=C(Cc2ccc(F)cc2)C(=O)c2ccccc2C1=O
    i | / | 1.6%
> Cc1cccc(NC(=O)Nc2cccc(F)c2)n1
    i | 0.73 | 6.0%
> CCCCc1nnc(NC(=O)CC(=O)Nc2ccccc2C(=O)O)s1
    i | / | 6.3%
> COCCn1cc(C(=O)N2CCN(C)CC2)c2c3ccccc3n(C)c2c1=O
    i | -0.1 | 2.6%
> CC1(C)CC(=O)C2=C(C1)OC(N)=C(C#N)C21C(=O)N2CCCc3cccc1c32 (stereo not given)
    i | 0.37 | -5.4%
> O=S(=O)(c1ccc(F)cc1)N1CCN(CC(O)COCc2cccs2)CC1 (stereo not given)
    i | 0.57 | 2.9%
> CC(C)c1ccc(-c2c(C#N)c(N)nc3c2CCCCC3)cc1
    i | / | -4.1%
> Cc1ccc(CSc2nc3ncccc3[nH]2)cc1
    i | / | -4.0%
> C#CCn1c(=NC(=O)CN2C(=O)CCC2=O)sc2cccc(C)c21
    i | -0.85 | -0.5%
> Cc1cc(C)cc(-n2nnc(C(=O)NCc3ccc4c(c3)OCO4)c2N)c1
    i | -1.3 | -9.9%
> N/C(=N\OC(=O)c1ccco1)c1ccc(Br)cc1
    i | / | 3.9%
> O=C(Nc1ccccc1)NC1CC2CCC(C1)N2Cc1nnnn1Cc1ccc2c(c1)OCO2 (stereo not given)
    i | / | 4.3%
> COC(=O)c1ccccc1NC(=O)CSc1nc(N)cc(N)n1
    i | 0.38 | 1.6%
> CCOc1cc(/C=N/O)cc(Br)c1OCC
    i | / | 0.5%
> CCOc1ccccc1OCC(=O)Nc1ccc(S(=O)(=O)Nc2ncccn2)cc1
    i | 0.16 | 2.3%
> O=C(c1ccccn1)N(Cc1ccco1)C1(C(=O)NC2CCCCC2)CCCCC1
    i | / | -1.3%
> CCn1c(SCC(=O)Nc2ccccc2OC)nnc1-c1cnccn1
    i | 1.2 | -4.6%
> CC(=O)C1=C(O)C(=O)N(Cc2ccccc2)C1c1ccco1 (stereo not given)
    i | -1 | 3.2%
> c1ccc(N2CCOCC2)c(Nc2nc3ccccc3n3cnnc23)c1
    i | 0.66 | -1.0%

3 records picked at random from those above, as already listed:
Each structure is followed by: MT1-MMP reporter | WNV NS2B-NS3 inh | Hsc70
> Cc1ccc2c(CSc3nc4nc(C)cc(C)n4n3)cc(=O)oc2c1
    i | / | -1.7%
> C#CCn1c(=NC(=O)CN2C(=O)CCC2=O)sc2cccc(C)c21
    i | -0.85 | -0.5%
> CCOc1cc(/C=N/O)cc(Br)c1OCC
    i | / | 0.5%

Additional results follow.
Each structure is followed by: MT1-MMP reporter | WNV NS2B-NS3 inh | Hsc70
> C=CCSc1nc2nc(C)cc(C)n2n1
    i | -0.26 | 0.8%
> O=C(CN1CCN(c2cccc(Cl)c2)CC1)N1CCCC1
    i | -0.45 | -2.0%
> Cc1ccc(S(=O)(=O)NC2(C(=O)O)CCCCC2)cc1
    i | / | 1.3%
> CC1(C)CC(=O)C2=C(C1)NC(Nc1nc3ccccc3o1)=NC21CCCC1
    i | -0.05 | -1.0%
> CCOC(=O)c1cnc(Nc2ccc(OCC)cc2)nc1C
    i | -0.7 | 2.1%
> O=C(NCc1cccnc1)NC1(C(F)(F)F)Oc2ccccc2O1
    i | 1.2 | 3.1%
> Cc1cccc(OCC(=O)N2CCC(N3CCOCC3)CC2)c1
    i | -0.21 | -0.1%
> CC(=O)OC1CC(C)N(C(=O)c2ccccc2)c2ccc(C)cc21 (stereo not given)
    i | 0.29 | -4.2%
> O=C(Nc1cccc(-c2nc3ccccc3[nH]2)c1)c1cccc(NC(=O)c2ccco2)c1
    i | 0.01 | -175%
> CCOC(=O)C1=C(C)NC(=O)NC1C (stereo not given)
    i | 0.99 | 1.2%
> CC12CCC(=O)N1c1c(sc3nc(N4CCOCC4)c4c(c13)CCCC4)C(=O)N2 (stereo not given)
    i | 0.91 | -5.9%
> Cn1c(=O)c2c(ncn2CC(=O)Nc2ccccc2N2CCOCC2)n(C)c1=O
    i | / | -0.3%
> CCOc1cccc(C(=O)Nc2nnc(-c3ccco3)s2)c1
    i | 1.4 | 1.2%
> Cc1ccc(S(=O)(=O)NCCCNC(=O)N2CCOCC2)cc1
    i | 0.44 | 6.4%
> CCn1c(SCc2cccc(C)c2)nnc1-c1ccccc1
    i | / | 4.6%

Record cards (already shown). Screens in order: MT1-MMP reporter	WNV NS2B-NS3 inh	Hsc70
CCn1c(SCc2cccc(C)c2)nnc1-c1ccccc1 reads i	/	4.6%
Cc1cccc(OCC(=O)N2CCC(N3CCOCC3)CC2)c1 reads i	-0.21	-0.1%
O=C(CN1CCN(c2cccc(Cl)c2)CC1)N1CCCC1 reads i	-0.45	-2.0%
CC1(C)CC(=O)C2=C(C1)NC(Nc1nc3ccccc3o1)=NC21CCCC1 reads i	-0.05	-1.0%

Source: PubChem BioAssay
